# Bioassay records deposited in PubChem by National Center for Advancing Translational Sciences (NCATS).
# TRPML1 ag = activates the human TRPML1 channel; activation, % (test concentration not listed); 0.12% of 410,000 active; TRPML1-expressing cells, Ca2+ dye fluorescence, FDSS; host cell line not named in the record; reference of the full effect not given here; Q9GZU1; in the data active = activation above about 50%; inconclusive = about 30% to 50%; inactive = below about 30%; also: 0% is about no effect; the text of the record puts the active cut at 80%
# Target sequence (Q9GZU1 whole entry, looked up): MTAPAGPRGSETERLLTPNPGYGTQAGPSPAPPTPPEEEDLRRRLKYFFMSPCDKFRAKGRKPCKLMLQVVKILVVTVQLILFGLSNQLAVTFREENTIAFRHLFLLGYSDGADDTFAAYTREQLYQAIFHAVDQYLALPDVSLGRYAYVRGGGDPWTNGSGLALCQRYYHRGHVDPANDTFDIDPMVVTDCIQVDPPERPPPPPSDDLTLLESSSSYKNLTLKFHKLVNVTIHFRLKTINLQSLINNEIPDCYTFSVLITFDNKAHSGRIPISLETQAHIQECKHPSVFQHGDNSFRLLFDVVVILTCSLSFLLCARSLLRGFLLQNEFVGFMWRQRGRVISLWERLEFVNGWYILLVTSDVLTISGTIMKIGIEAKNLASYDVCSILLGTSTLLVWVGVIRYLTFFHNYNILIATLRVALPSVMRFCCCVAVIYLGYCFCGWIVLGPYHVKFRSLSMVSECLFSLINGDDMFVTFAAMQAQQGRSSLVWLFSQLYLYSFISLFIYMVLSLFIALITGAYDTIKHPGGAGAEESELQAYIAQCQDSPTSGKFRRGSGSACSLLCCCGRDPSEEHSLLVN
#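 In this qHTS format, compounds were pin-transferred onto Ca8-dye-loaded TRPML1-DL cells induced with Tet overnight, and intracellular Ca2+ fluorescence was recorded kinetically for 110 s after a 10 s baseline. A subsequent 4uM final 54-4 (EC80) addition followed by a second 110 s read served as the antagonist phase.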
# ClpP mod = qHTS Assay for Activators of ClpP. ATP-dependent Clp protease proteolytic subunit (Bacillus subtilis (strain 168)), P80244. purified B. subtilis ClpP, FRET peptide cleavage, 20 min. Potency, µM (top dose mostly 57.5 µM), for the others: at the highest dose activity change, negative = active. 1.9% of 340,000 active; active = well fitted falling curve with a large enough effect; inconclusive = small, poorly fitted or top-dose-only effect; inactive = no such curve, though single readings can be large or run the other way; also: potency is read from the fitted curve at half-maximal effect; the source files actives as falling curves though it sought activators and does not explain the sign; nearly all actives have a fitted effect of over 65% in size; many hits overshoot -100%
# Target sequence (P80244 whole entry, looked up): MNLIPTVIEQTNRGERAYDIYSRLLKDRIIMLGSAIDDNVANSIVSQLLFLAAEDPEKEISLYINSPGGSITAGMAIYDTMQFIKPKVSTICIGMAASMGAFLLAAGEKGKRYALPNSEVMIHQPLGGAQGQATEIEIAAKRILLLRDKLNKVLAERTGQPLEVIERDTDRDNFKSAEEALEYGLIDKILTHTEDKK
#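 FRET quenching reversal measured ClpP activation: 10 microg/mL B. subtilis ClpP at pH 8 with the FRET-FV decapeptide, read at 430 nm after 320 nm excitation. The 20-min minus 0-min signal was scaled between DMSO/no-enzyme wells and ADEP (5.8 microM final).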
# gsp antag = antagonizes gsp, the McCune-Albright syndrome mutation; gsp-mutant cells, cAMP HTRF, 30 min; control for the full effect not named in the record; Potency, µM (highest dose often 76.9 µM), inactives show at the top dose activity change, negative = inhibition, actives largely listed as inhibitors; 0.4% of 340,000 active; AID 624288; active = falling curve of any shape with a large fitted effect; inconclusive = falling curve, mostly with a smaller effect; inactive = flat or rising curve; cell line not stated here;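 also: intracellular cAMP measured with PDE inhibitor Ro 20-1724 present during compound exposure; potency is read from the fitted curve at half-maximal effect; % is scaled to controls: 0 for no effect and ±100 for the full control effect; nearly all actives have a fitted effect of over 65% in size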
#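 HTRF cAMP read-out (cAMP-d2 plus anti-cAMP antibody-K in lysis buffer, 30 min RT). Before lysis, cells are exposed to compounds with […] for 30 min at 37C in DPBS containing Ca/Mg, BSA and Tween 20.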
# Menin-MLL FL inh = displaces fluorescein MLL peptide from human menin | Fluorescence polarization, fluorescein-MLL peptide displacement from menin | FP activity change, % at 61.4 µM | 290,000 tested, under 10 active; inconclusive = falling polarisation curve, or a change in total fluorescence; inactive = total fluorescence flat and polarisation flat or rising; no compound was filed as active; the % refers to the polarisation; negative = inhibition;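 also: % of control where 0% means no effect; inhibitors lower the polarisation; unlabelled MLL peptide was the positive control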
# TRPML1 inh = human mucolipin-1 channel inhibition | Q9GZU1 | TRPML1-inducible cells, Ca2+ dye fluorescence, FDSS; active compounds read low; inhibition of EC80 agonist-evoked calcium signal | activity change, negative = inhibition, % (concentration not given with the values) | 0.02% of 390,000 active | AID 624415; in the data active means activity change below about -50%; inconclusive means about -30% to -50%; inactive means above about -30%;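 also: stimulus is agonist 54-4 at its EC80 concentration; % is scaled to controls: 0 for no effect and ±100 for the full control effect; the text of the record puts the active cut at -80%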
#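 TRPML1-DL cells, Tet-induced overnight (~16 h, 37 °C) at 1,500 cells/well, were loaded with Ca8 no-wash dye plus quencher for 45-90 min at room temperature. Compounds were pinned during FDSS kinetic reading; agonist 54-4 at EC80 (4 uM final) then added.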
# gsp ag = gsp mutant agonism. gsp mutant cells, cAMP HTRF, 30 min; control for the full effect not named in the record. Potency, µM (doses to about 76.9 µM), without a hit: at the top dose activation (cAMP increase), usual class: activators. 0.13% of 340,000 active; active = well fitted activation curve with a large enough effect; inconclusive = small, poorly fitted or top-dose-only effect, or another doubt; inactive = no such curve, though single readings can be large or run the other way; cell line not stated here;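 also: phosphodiesterase inhibitor Ro 20-1724 added with compounds to block cAMP breakdown; potency is read from the fitted curve at half-maximal effect; nearly all actives have a fitted effect of over 60% in size; about a fifth of the inactives were tested at one dose only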
#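 Cells stably selected in G418 were plated at 2000/well, grown 16-24 hr, then given compounds in DMSO with the PDE inhibitor […] (300 uM solution added) for 30 min at 37C; cAMP was read by HTRF.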
# Active calls of the source: *; ? = inconclusive; . = not tested or not shown; [ ] = remark or other dose. No enrichment for hits; 2.1% or so of the library scored in one or more.
SMILES,TRPML1 ag,ClpP mod,gsp antag,Menin-MLL FL inh,TRPML1 inh,gsp ag
CC(C)NC(=S)NC1(C)CCS(=O)(=O)C1 (configuration not stated),0.7,-1.8%,8%,-1.6,14,?
Fc1cc(F)c2nc(N3CCOCC3)sc2c1,-0.1,-2.3%,4%,-0.9,-3,5%[15.4 µM]
COc1cccc(-c2noc(COc3ccc(C(C)(C)C)cc3)n2)c1,-0.6,-2.3%,.,.,8,.
CCN(CC)C(=O)COc1ccc2oc(C)c(C(=O)OC)c2c1,-0.8,-3.1%,-9%,1.3,-5,6%
COc1ccc(S(=O)(=O)NCCc2sc(C)nc2C)cc1,1.5,-1.1%,.,.,3,.
O=C(NCc1cccnc1)C1c2ccccc2C(=O)N1C1CCCC1 (configuration not stated),-0.5,-0.5%,4%,2.0,18,-21%
CC(C)CNC(=O)COC(=O)c1c2c(nc3ccccc13)CCC2,-0.1,.,-4%,7.9,-1,11%[15.4 µM]
Cc1csc(SCC(=O)N(c2ccccc2)C(C)C)n1,-0.4,-9.4%,7%,.,-6,2%
O=C(Nc1cc(N2CCOCC2)ncn1)c1ccccc1,-0.3,-2.2%,-7%,0.2,33,?
COc1ccc(NC(=O)CCS(=O)(=O)c2nc(-c3cccs3)cc(C(F)(F)F)n2)cc1OC,-0.7,17%,.,.,29,.
CN1C(=O)C(C)(C)c2cc(S(=O)(=O)N3CCC(C(=O)NCc4ccc(Cl)cc4)CC3)ccc21,-0.2,0.4%,?,-0.3,0,10%
CCOc1cc(C(=O)N(C)Cc2cc3cc(OC)ccc3[nH]c2=O)cc(OCC)c1OCC,-0.4,-3.2%,-15%,1.0,-5,21%
COc1ccc(/C=C/c2c([N+](=O)[O-])c(=O)n(C)c(=O)n2C)cc1O,-0.7,-1.2%,-8%,-1.7,-7,6%
CCc1cc2c(=O)c(-c3ccc4c(c3)OCCO4)coc2cc1OS(C)(=O)=O,3.3,.,?,3.6,7,-16%[15.4 µM]
Cc1cc(Br)ccc1NC(=O)CSc1nnc(CN2CCOCC2)n1C,0.1,.,5%,0.3,-8,?
O=C(NCC1CCCN1S(=O)(=O)c1cccs1)c1ccc(F)c(F)c1 (configuration not stated),-0.5,0.8%,4%,.,2,1%
COc1ccc(Nc2ncnc3sccc23)c(OC)c1,0.3,.,6%,2.1,-3,-17%[15.4 µM]
COC(=O)c1scc(-c2ccc(C)cc2)c1S(=O)(=O)Nc1ccc(OC(F)(F)F)cc1,0.2,0.4%,.,.,0,.
S=C(Cc1ccccc1)Nc1ccccc1,0.0,-19%,3%,.,4,?
O=S1(=O)C2CC3CCC2(CN1Cc1cccc(F)c1)O3 (configuration not stated),0.8,.,.,-2.1,-3,.

# A different layout for part of the listing above.
structure | TRPML1 ag | ClpP mod | gsp antag | Menin-MLL FL inh | TRPML1 inh | gsp ag
CCc1cc2c(=O)c(-c3ccc4c(c3)OCCO4)coc2cc1OS(C)(=O)=O | 3.3 | . | ? | 3.6 | 7 | -16%[15.4 µM]
COc1ccc(Nc2ncnc3sccc23)c(OC)c1 | 0.3 | . | 6% | 2.1 | -3 | -17%[15.4 µM]
O=C(NCC1CCCN1S(=O)(=O)c1cccs1)c1ccc(F)c(F)c1 (configuration not stated) | -0.5 | 0.8% | 4% | . | 2 | 1%
Cc1cc(Br)ccc1NC(=O)CSc1nnc(CN2CCOCC2)n1C | 0.1 | . | 5% | 0.3 | -8 | ?
CCOc1cc(C(=O)N(C)Cc2cc3cc(OC)ccc3[nH]c2=O)cc(OCC)c1OCC | -0.4 | -3.2% | -15% | 1.0 | -5 | 21%

# (cont.)
SMILES,TRPML1 ag,ClpP mod,gsp antag,Menin-MLL FL inh,TRPML1 inh,gsp ag
COc1ccc(OCC(=O)Nc2ccc(S(=O)(=O)N(C)c3ccccc3)cc2)cc1,1.2,-0.5%,-5%,-6.1,22,-2%
Cc1c(Cc2ccccc2)c(=O)oc2c(C)c(OCC(=O)Nc3ccc(C#N)cc3)ccc12,0.2,-0.3%,-15%,4.2,14,7%[15.4 µM]
O=C(Nc1ccccc1)OCC(CN1CCCCC1)OC(=O)Nc1ccccc1 (configuration not stated),0.2,0.3%,-4%,3.1,-5,.
CC(=O)Nc1ccc(S(=O)(=O)NCC(=O)N2CCN(S(=O)(=O)c3cccs3)CC2)cc1,4.0,-3.3%,13%,.,10,29%
Cc1ccc2c(c1)c(N1CCCC1=O)c(C(=O)Nc1ccc(F)cc1F)n2C,2.0,-3.1%,.,.,5,.
Cc1ccc(N2CC(NC(=O)C3CC3)CC2=O)cc1 (configuration not stated),0.2,.,4%,.,7,-4%[15.4 µM]
CCc1cccc(CC)c1NC(=O)CCS(=O)(=O)c1ccc(Br)s1,1.6,-0.1%,.,.,-3,.
COc1cc(OC)cc(C(=O)N[C@H](C(=O)OCC(=O)c2ccc(C)c([N+](=O)[O-])c2)C(C)C)c1,1.8,3.3%,?,.,-5,-42%[inhibitor]
O=C(Nc1ccc(NC(=O)c2ccccc2Cl)nc1)c1ccco1,0.3,.,-1%,-4.3,-7,-19%[15.4 µM]
Cc1ccc(NC(=S)N(CCCN2CCCC(C)C2)Cc2ccco2)cc1C (configuration not stated),-0.2,1.2%,3%,-1.8,-17,-1%
Cc1cc(Cl)ccc1OCC(=O)N1C(C)CCCC1C (configuration not stated),4.1,0.3%,-9%,1.6,-12,3%
Cc1cc(C)nc(NNC(=O)c2ccccc2O)n1,-0.2,-24%,4%,3.4,-19,-50%
COc1ccc(CCNCC(O)COc2cccc(C(C)=O)c2)cc1OC (configuration not stated),1.1,.,2%,3.5,-10,-11%
O=S(=O)(NCC1CCCO1)c1ccc(-c2ccc(S(=O)(=O)NCC3CCCO3)cc2)cc1 (configuration not stated),-0.1,.,-15%,3.1,25,-22%[15.4 µM]
CC(C)c1ccc(C2(O)C(=O)Nc3cc(Br)ccc32)c(O)c1 (configuration not stated),0.5,.,-14%,-7.2,10,11%
COc1cccc(C(=O)NNC(=O)CCN2CCN(c3ccccc3)CC2)c1,0.0,-1.0%,-6%,.,1,14%[15.4 µM]
Cc1cccc(NC(=O)c2nc[nH]c2C(=O)N2CCN(C(=O)OC(C)(C)C)CC2)c1,0.5,-0.3%,-6%,.,16,.
COc1ccc(C2CC(=O)C(C=NCCN3CCN(C(C)=O)CC3)=C(O)C2)cc1 (configuration not stated),0.6,-1.3%,-1%,0.0,-1,-3%
O=C(N/N=C/c1ccc(OC(F)F)cc1OC(F)F)NC1CCCCC1,0.8,.,-12%,-3.1,0,11%[15.4 µM]
Cc1c(NC(=O)c2ccco2)cccc1C(=O)NN1C(=O)c2ccccc2C1=O,0.5,2.5%,13%,-10,-10,-121%[inhibitor]
CCn1cc(CCCC(=O)NCc2cccc(OC)c2)c2ccccc21,.,-22%,-27%,-0.6,.,-22%
CCOc1ccc(OCC)c(NC(=O)c2cnn(-c3ccc(F)cc3)c2C2CCN(C(=O)OC(C)(C)C)CC2)c1,4.2,-3.2%,.,.,-3,.
O=C1OC(c2ccccc2)c2ccccc21 (configuration not stated),-0.6,?,-9%,-1.1,15,7%[15.4 µM]
O=C(COc1ccc(Cl)cc1Cl)NCc1ccco1,-0.6,-0.6%,14%,-0.2,8,15%
O=c1[nH]c2ccccc2c(=O)n1CCCO,-0.4,?,11%,6.2,1,-32%[inhibitor]
CCC1(c2ccccc2)NC(=O)N(CC(=O)Nc2cccc(C#N)c2)C1=O (configuration not stated),-0.4,2.4%,0%,1.2,-22,?
CC(C)(C)C(=O)c1sc2nc(-c3cccs3)cc(C(F)(F)F)c2c1N,9.6,-18%,-2%,?,-2,?
CC(C)[C@H](NC(=O)c1ccccc1)C(=O)OCC(=O)Nc1ccc2c(c1)OCCO2,-1.4,-0.9%,-16%,1.7,-7,-19%
COc1ccccc1N1CCN(C2=NS(=O)(=O)c3ccccc32)CC1,2.2,-2.9%,-29%,3.9,-11,?
COc1cc(Cl)c(C)cc1NC(=O)CSc1ccc(NC(C)=O)cc1,1.1,-1.3%,?,0.7,-17,-8%
Cc1ccc(/C=N/Nc2nc(C)cc(C)n2)cc1,1.0,.,5%,?,-14,3%[15.4 µM]
S=c1[nH]nc(-c2cc(-c3ccccc3)n[nH]2)n1/N=C/C(Br)=C/c1ccccc1,0.0,-3.6%,-19%,2.0,2,6%[15.4 µM]
Cc1nc(C(=O)NNC(=O)c2ccccc2Cl)c(C(F)(F)F)o1,-0.4,.,-4%,-0.3,-1,-10%[15.4 µM]
CCOC(=O)c1c(NC(=O)c2cc(CC)on2)sc(C(C)=O)c1C,-0.8,-1.4%,.,.,-12,.
O=C(Cc1ccc([N+](=O)[O-])cc1)NNC(=O)c1cccs1,-0.3,.,15%,-0.1,3,-5%[15.4 µM]
CCOC(=O)C1(CCCc2ccccc2)CCN(C(=O)c2cnn(CC)c2)CC1,0.4,.,-15%,0.2,-4,-26%
O=C(OCC(=O)N1CCOCC1)c1ccccc1SCC(=O)N1CCCC1,0.2,-2.6%,5%,-1.6,-5,-19%
COCCN(C(=S)Nc1ccc(C)cc1)C(C)c1cccnc1 (configuration not stated),0.0,.,4%,2.7,-5,-1%[15.4 µM]
COc1cc(C#Cc2c(-c3ccccc3)n(C)c3ccccc23)cc(OC)c1,1.7,3.2%,2%,0.1,8,.
CCCN(C(=O)Cc1c(C(=O)O)n(C)c2ccccc12)c1cccc(C)c1,0.5,-11%,-3%,1.4,0,-17%
O=C(CC1SCCNC1=O)Nc1cccc(C(F)(F)F)c1 (configuration not stated),1.5,-4.0%,4%,1.7,-10,?
Cc1cccc(NC(=O)Cn2cc(C(=O)c3ccco3)c3ccccc32)c1C,0.8,-22%,.,.,9,.
Cc1cc(NN)nc(NS(=O)(=O)c2ccccc2Cl)n1,2.4,-2.1%,?,3.9,-2,-28%
COc1ccc2c(C)cc(=O)oc2c1C,0.4,?,10%,0.1,2,-17%
CCc1cccc(CC)c1-n1c(SCn2nnc3ccccc3c2=O)nnc1-c1cccnc1,0.5,-3.3%,-18%,-0.7,12,?
O=C(OCC(=O)C12CC3CC(CC(C3)C1)C2)c1cccnc1Cl,0.5,0.3%,-18%,1.0,-8,5%[15.4 µM]
COc1ccc(C(=O)/C=C/Nc2cccc(O)c2)cc1,-0.2,1.6%,8%,6.5,-1,-42%[inhibitor]
CCc1cccc(C)c1N(C(=O)Cn1c(CO)nc2ccccc21)C(C)COC (configuration not stated),0.7,0.5%,0%,1.9,-6,-22%
Cc1ccc(S(=O)(=O)Nc2ccc3[nH]c(=O)[nH]c3c2)c(C)c1,1.0,.,4%,3.2,-11,4%[15.4 µM]
CCc1ccc(OCC(=O)NNC(=O)c2nn(CC)c(=O)c3ccccc23)cc1,-0.8,-2.3%,5%,1.0,4,6%[15.4 µM]
